2A StopGo: High Throughput Screening for Foot and Mouth Disease Virus Antivirals. human cells with a luciferase reporter of 2A StopGo recoding; control for the full effect not named in the record. Potency, µM (top dose mostly 57.9 µM), without a hit: at the top dose signal change, negative = less light. actives 1.2% (n = 410,000). AID 1159524, 2015; active = well fitted falling curve with a large enough effect; inconclusive = small, poorly fitted or top-dose-only effect; inactive = no such curve, though single readings can be large or run the other way; tested in HEK293T cells; further: on the % scale 0 is the no-effect control and ±100 the full control effect; nearly all actives have a fitted effect of over 45% in size; luciferase light after 4 h
Marburg entry inh: qHTS for inhibitors of binding or entry into cells for Marburg Virus; Marburg virus pseudotyped entry inhibition, cell reporter; control for the full effect not named in the record; about a third of the inactives were read at about 46 µM; Potency, µM (series often up to 37.8 µM), without a hit: at the top dose activity change, negative = inhibition, most hits filed as inhibitors; actives 1.8% (n = 300,000); AID 540276, 2011; active = well fitted inhibition curve with a large enough effect; inconclusive = small, poorly fitted or top-dose-only effect, or effect the other way; inactive = flat fitted curve, though single readings scatter; tested in HEK293 cells; about a fifth of its hits are not listed in these tables; further: on the % scale 0 is the no-effect control and ±100 the full control effect; luciferase read-out
LASV entry inh: qHTS for Inhibitors of binding or entry into cells for Lassa Virus | Lassa virus pseudotype entry inhibition, cell reporter; control for the full effect not named in the record | Potency, µM (titrated, usually from 37.9 µM), for inactives: at the highest dose activity change, negative = inhibition, actives largely listed as inhibitors | actives 1.2% (n = 300,000) | AID 540256, 2011; active means well fitted inhibition curve with a large enough effect; inconclusive means small, poorly fitted or top-dose-only effect, or effect the other way; inactive means flat fitted curve, though single readings scatter; tested in HEK293 cells; further: on the % scale 0 is the no-effect control and ±100 the full control effect; nearly all actives have a fitted effect of over 50% in size; luciferase read-out
SARS PLP yeast: qHTS of Yeast-based Assay for SARS-CoV PLP | S. cerevisiae expressing SARS-CoV PLpro, growth rescue; control for the full effect not named in the record | actives 0.19% (n = 330,000) | Potency, µM (titrated, usually from 32.9 µM), inactives show at the highest dose activity, positive = growth rescue; active means well fitted rising curve with a large enough effect; inconclusive means small, poorly fitted or top-dose-only effect; inactive means no such curve, though single readings can be large or run the other way; further: 0% is about no effect; nearly all actives have a fitted effect of over 55% in size; growth read by luminescence after 48 h
Cruzain noTriton: qHTS Assay for Promiscuous and Specific Inhibitors of Cruzain (without detergent); Cruzipain (Trypanosoma cruzi), P25779; AID 1476, 2009; Potency, µM, without a hit: max response, negative = inhibition, hits mostly inhibitors; purified cruzain, Z-FR-AMC fluorescence, no detergent; actives 2.3% (n = 200,000);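 further: plate controls were enzyme without inhibitor for no effect and buffer without enzyme for full effect; nearly all actives have a fitted effect of over 40% in size; top concentration of the series not given in the record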
Target sequence (P25779 123-467 limits assumed): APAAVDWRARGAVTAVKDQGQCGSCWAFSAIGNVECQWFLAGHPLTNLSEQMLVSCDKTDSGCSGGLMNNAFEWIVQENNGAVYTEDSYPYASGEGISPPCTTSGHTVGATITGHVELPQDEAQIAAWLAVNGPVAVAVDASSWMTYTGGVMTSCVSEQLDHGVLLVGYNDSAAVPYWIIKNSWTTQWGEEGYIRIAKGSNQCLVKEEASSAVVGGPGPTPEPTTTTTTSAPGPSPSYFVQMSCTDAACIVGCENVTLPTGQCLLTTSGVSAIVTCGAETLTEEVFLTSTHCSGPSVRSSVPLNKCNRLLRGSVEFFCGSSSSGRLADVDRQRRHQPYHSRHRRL
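Purified cruzain at 1.5 nM, pre-incubated 15 min with compound at room temperature in 100 mM sodium acetate pH 5.5, 5 mM DTT, 0.00005% Triton X-100. Reaction started with 2 uM Z-FR-AMC; AMC fluorescence increase over 60 s gives rate.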
NS1 inh: qHTS Assay for Inhibitors of Influenza NS1 Protein Function | S. cerevisiae slowed by influenza A NS1, growth recovery by OD600 | Potency, µM (doses to about 46.1 µM), without a hit: top-dose activity, positive = more growth | AID 2326, 2010 | actives 0.4% (n = 270,000); active means well fitted rising curve with a large enough effect; inconclusive means small, poorly fitted or top-dose-only effect; inactive means no such curve, though single readings can be large or run the other way; further: nearly all actives have a fitted effect of over 50% in size
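In this qHTS, NS1 from influenza A is expressed in budding yeast, where it slows growth. Cells are switched from glucose to 2% galactose medium (pH 6.0, -URA), treated with compound, and growth recovery is read at OD600.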
Cruzain inh Det: qHTS Assay for Promiscuous and Specific Inhibitors of Cruzain (with detergent) | Potency, µM, without a hit: max response, negative = inhibition, hits mostly inhibitors | Cruzipain (Trypanosoma cruzi), P25779 | actives 0.43% (n = 200,000) | purified cruzain, Z-FR-AMC fluorescence, 0.01% Triton | AID 1478, 2009;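 further: plate controls were neutral wells for no effect and buffer without enzyme for full effect; nearly all actives have a fitted effect of over 40% in size; top concentration of the series not given in the record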
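Enzyme 1.5 nM, Z-FR-AMC 2 uM, NaOAc 100 mM pH 5.5, DTT 5 mM, Triton X-100 0.01%; 15 min RT compound preincubation; kinetic ex360/em450, 60 s delta.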
RE007 growth inh: qHTS Assay for Inhibitors of the HIV-1 protein Vpr; S. pombe RE007 Vpr strain, BacTiter-Glo ATP luminescence, 24 h; control for the full effect not named in the record; Potency, µM (doses to about 92.2 µM), for inactives: at the top dose activity change, negative = less growth; actives 0.21% (n = 360,000); active = well fitted falling curve with a large enough effect; inconclusive = small, poorly fitted or top-dose-only effect; inactive = no such curve, though single readings can be large or run the other way;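 further: on the % scale 0 is the no-effect control and ±100 the full control effect; nearly all actives have a fitted effect of over 50% in size; the assay follows cell death caused by Vpr and the record does not say whether a fall means rescue or toxicity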
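Fission yeast strain RE007, carrying one chromosomally integrated HIV-1 vpr copy, was seeded at OD 0.01 in PMG+AL medium with 23 nL pinned compound. After 24 h at 30 °C and 99% humidity, viability was read by BacTiter-Glo luminescence.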
The depositor's hits bear a star; ? = inconclusive; nt = no result given; & = joins results of further samples; [ ] = another dose, or the depositor's remark. Unless noted, the call rests on the fitted dose curve; in most records, active means well fitted curve in the direction sought with a large enough effect; inconclusive means small, poorly fitted or top-dose-only effect, or another doubt; inactive means no such curve, though single readings can be large; an effect the other way counts as inactive or inconclusive. Potency means the concentration at half of the fitted maximal effect.

Sample of the layout, 2 compounds:
canonical_smiles	2A StopGo	Marburg entry inh	LASV entry inh	SARS PLP yeast	Cruzain noTriton	NS1 inh	Cruzain inh Det	RE007 growth inh
O=C1NC(=O)C(Cc2ccccc2)(Cc2ccccc2)C(=O)N1	-16.6%	24.2%	0.3%	nt	nt	nt	nt	3.4%
CN(c1ccc([N+](=O)[O-])cc1/C=N/NC(=O)COc1ccccc1)C1CCCCC1	-10.1%	3.6%	-30.2%	1.6%	?	8.1%	-6.2%	8.3%

The list itself, previewed entries included:
canonical_smiles	2A StopGo	Marburg entry inh	LASV entry inh	SARS PLP yeast	Cruzain noTriton	NS1 inh	Cruzain inh Det	RE007 growth inh
O=C1NC(=O)C(Cc2ccccc2)(Cc2ccccc2)C(=O)N1	-16.6%	24.2%	0.3%	nt	nt	nt	nt	3.4%
CN(c1ccc([N+](=O)[O-])cc1/C=N/NC(=O)COc1ccccc1)C1CCCCC1	-10.1%	3.6%	-30.2%	1.6%	?	8.1%	-6.2%	8.3%
COCc1cc(CN2CCN(Cc3ccsc3)C(CCO)C2)ccc1OC (stereo not drawn)	1.5%	5.1%[46.1 µM]	-21.2%	0.1%	nt	2.6%	nt	9.1%
N#CC1=C(S)N(c2ccccc2)C(c2ccc(-c3ccccc3Cl)o2)NC1=O (stereo not drawn)	0.0%	?	-0.1%	-0.9%	7.8%	3.3%	-27.0%	-3.4%
Cc1cccc(-n2nnc3c(=O)n(Cc4ccccn4)cnc32)c1	15.8%	17.6%[46.1 µM]	?	0.8%	nt	nt	nt	0.4%
O=C(CN1CCN(c2ccc(F)cc2)CC1)Nc1ccccc1Br	-28.1%	?	-25.2%[46.1 µM]	3.7%	nt	1.2%	nt	1.0%
O=C(CCCN1C(=O)c2cccc3cccc(c23)C1=O)N1CCN(c2ccccc2)CC1	?	7.8%	-9.7%	0.4%	16.5%	10.0%	-6.5%	4.9%
CC(NC(=O)CCCN1C(=O)CCn2nc(-c3cn(C)c4ccccc34)cc21)c1ccccc1 (stereo not drawn)	?	nt	-10.3%[46.1 µM]	nt	?	nt	-2.6%	nt
O=C(Nc1ccccc1)Nc1ccc2ncoc2c1	81.4%[activator]	6.2%[46.1 µM]	?	-0.8%	nt	-3.9%	nt	13.7%
Clc1ccc(OCCCN2CCCCC2)c(Br)c1	25.9%	14.6µM*	?	-24.3%	7.3%	-7.4%	-7.5%	3.1%
CCc1ccc2nc(NC(=O)CCCc3cccs3)sc2c1	71.4%[activator]	?	?	13.5%	?	0.6%	-1.7%	-15.6%
O=c1oc2cc(Oc3ccc(C(F)(F)F)cc3[N+](=O)[O-])ccc2c2c1CCCC2	?	2.0%	?	3.5%	-9.9%	22.0%	-1.0%	7.5%
OC(COCc1ccc(Cl)cc1)CN1CCc2ccccc2C1 (stereo not drawn)	-22.7%	?	-2.9%	1.4%	-5.1%	-9.7%	-3.9%	-16.1%
C(=C\c1ccccc1)/C=N/N1CCN(c2ccccn2)CC1	28.4%	16.0%	5.4%	-2.2%	-12.5%	-9.2%	-2.1%	-13.5%
CCn1nc(C(=O)OCC(=O)NCC(C)C)c2ccccc2c1=O	-10.2%	nt	-9.0%	-0.4%	nt	nt	nt	-15.3%
COc1ccc(NC(=O)c2c(NC(=O)Cc3ccccc3)sc3c2CCCC3)cc1	5.5%	nt	5.3%[46.1 µM]	nt	-14.6%	nt	0.4%	nt
O=C(Nc1ccc2c(c1)OCCO2)C1CCCN(S(=O)(=O)Cc2ccccc2)C1 (stereo not drawn)	-4.7%	18.2%[46.1 µM]	3.5%	0.9%	3.7%	-4.7%	-6.3%	4.3%
Cc1cc(NC(=O)COC(=O)CCNS(=O)(=O)c2cccc(C(F)(F)F)c2)no1	6.9%	-3.4%[46.1 µM]	-1.2%	-0.2%	nt	4.9%	nt	-8.0%
COc1ccc(C(=O)Nc2cccc(/C(C)=N\NC(=O)c3ccoc3C)c2)cc1OC	-1.2%	16.2%[46.1 µM]	?	-4.1%	nt	-14.8%	nt	2.3%
S=C(Nc1ccccc1)Nc1cccc(Br)c1	34.7%[activator]	nt	nt	-0.9%	nt	-3.3%	nt	-2.4%
O=c1oc(-c2cccc(C(F)(F)F)c2)nn1-c1ccc(C(F)(F)F)cn1	3.5%	-25.5%&-25.5%[14.2 µM]	-2.1%	1.0%	nt	6.7%	nt	-21.9%
COc1ccc(-n2nnc3c(=O)n(CC(=O)N4CCCCC4)cnc32)cc1	-19.6%	nt	nt	-3.9%	-9.3%	4.1%	-3.7%	-8.8%
CCOC(=O)/C(C#N)=C/c1cn(CCC(=O)O)nc1-c1cccc(Cl)c1	-11.4%	4.8%[46.1 µM]	16.7%	0.9%	nt	nt	nt	22.0%
CNC(=S)N(CCO)Cc1cc2cc3c(cc2[nH]c1=O)OCO3	-17.6%	nt	nt	-2.4%	nt	11.5%	nt	14.2%
CCN(CC(=O)Nc1c(F)cccc1F)C(=O)CCc1nc2sc3c(c2c(=O)[nH]1)CCCC3	-3.4%	5.5%	-3.2%	1.9%	nt	nt	nt	0.6%

Next section.
canonical_smiles	2A StopGo	Marburg entry inh	LASV entry inh	SARS PLP yeast	Cruzain noTriton	NS1 inh	Cruzain inh Det	RE007 growth inh
Cc1ccc(NC(=O)CN(C)C(=O)c2ccc(NC(=O)CC3SC(N4CCCC4)=NC3=O)cc2)cc1 (stereo not drawn)	0.0%	6.6%[46.1 µM]	18.8%	6.8%	nt	nt	nt	-21.9%
Cc1ccsc1C(=O)OCC(=O)N1CCOCC1	69.6%[activator]	?	?	0.4%	4.7%	0.3%	0.4%	5.6%
Cc1ccccc1Nc1nc(N)nc(COC(=O)c2cccn2C)n1	52.5%[activator]	-4.9%	?	-3.2%	-7.9%	-3.8%	-3.3%	-9.5%
CC(=O)NC1(C(F)(F)F)N=C(c2ccccc2)NC1=O (stereo not drawn)	-11.8%	?	-3.9%	-4.3%	9.7%	2.4%	1.1%	12.3%
O=C(O)CN1C(=O)C(=O)N(Cc2ccc(Cl)cc2Cl)C1=O	6.0%	8.9%	-3.4%	8.3%	nt	-2.1%	nt	9.9%
O=C(NCc1ccco1)C(C(=O)c1ccccc1)n1ccccc1=O (stereo not drawn)	5.3%	6.0%	-6.4%	10.8%	-6.5%	-4.9%	-0.4%	13.5%
COc1cccc(NC(=O)C2CCN(C(=O)N3CC(C)Oc4ccccc43)CC2)c1 (stereo not drawn)	0.0%	nt	5.0%[46.1 µM]	nt	-0.2%	nt	-0.1%	nt
CCN(CC(=O)NCc1ccc(Cl)cc1)C(=O)CNS(=O)(=O)c1ccc(NC(C)=O)cc1	-6.5%	-3.1%	-0.4%	-0.7%	nt	-32.1%	nt	-0.8%
CCOC(=O)c1c(C)[nH]c(C(=O)OCC(=O)NC(C)C)c1C	3.3%	-16.8%	?	-0.4%	20.3%	2.6%	7.6%	-7.5%
CCCCNC(=O)NNC(=O)C1CC1(c1ccccc1)c1ccccc1 (stereo not drawn)	0.0%	nt	nt	-1.1%	nt	2.0%	nt	6.3%
COC(=O)c1cc2c(s1)-c1ccc(OC)cc1CC2	63.9%[activator]	nt	nt	-3.4%	nt	-8.4%	nt	3.8%
Cc1nn(CCc2n[nH]c(=S)n2-c2ccc(F)cc2)c(C)c1[N+](=O)[O-]	-7.0%	18.6%	?	2.6%	3.4%	2.4%	-2.7%	4.9%
O=c1cc(CO)occ1OCc1cccc(F)c1	20.1%	26.0%	7.6%	-13.6%	-6.0%	8.9%	3.8%	-8.0%
CCOC(=O)[C@@H]1[C@H]2COc3ccc(Br)cc3[C@@H]2N2C(=O)N(c3cccc(F)c3)C(=O)[C@@]12C	-13.1%	nt	nt	8.7%	nt	28.8%	nt	-8.8%
COc1ccc(NC(=S)N2CCC(NC(=O)c3ccc(F)cc3)CC2)cc1	-6.9%	14.4%[46.1 µM]	10.0%	-9.3%	nt	-13.8%	nt	-7.3%
Cc1noc(C)c1S(=O)(=O)Nc1ccc(C(=O)N2CCN(c3cccc(Cl)c3)CC2)cc1	-13.9%	0.9%	16.2%	9.2%	?	20.8%	-4.2%	-12.0%
O=C(Nc1cccc2ccccc12)N1N=CCC1c1ccccc1 (stereo not drawn)	40.4%[activator]	-5.4%[46.1 µM]	?	-2.1%	nt	-4.2%	nt	3.4%
CC(=O)Nc1ccc(N(C(=O)c2cnccn2)C(C(=O)NC2CCCCC2)c2ccc(O)cc2)cc1 (stereo not drawn)	nt	1.6%	-3.7%	0.3%	2.1%	-14.0%	3.7%	-1.5%
CC(C)CCN1CCN=C1Nc1ccccc1	-12.1%	nt	nt	-2.5%	nt	13.4%	nt	-14.1%
CCS(=O)(=O)Nc1cccc(C2=NN(S(=O)(=O)CC)C(c3cccs3)C2)c1 (stereo not drawn)	-3.1%	nt	nt	2.5%	nt	1.1%	nt	2.6%
Cc1ccccc1-c1nc(CNC(=O)NC2CCCCC2)c(C)o1	27.9%	nt	-7.2%[46.1 µM]	nt	-10.3%	nt	1.0%	nt
Cc1ccc(Oc2ccccc2)c(NC=O)c1	31.8%[activator]	1.4%	-13.5%	6.9%	-0.1%	-11.8%	-1.0%	-8.6%
Cc1ccc2c3c(c(SCC(=O)Nc4nccs4)nc2c1)CCCC3	nt	nt	nt	-1.6%	0.7%	9.0%	2.0%	nt
Cc1nnsc1C(=O)NCc1c(F)cccc1Cl	18.9%	10.0%[46.1 µM]	0.2%[46.1 µM]	3.3%	nt	7.0%	nt	10.8%

Source: PubChem BioAssay
